Sa RN4220 lethal – kills Staphylococcus aureus RN4220; 330,000 compounds, 0.33% hits; AID 1259311; inhibition, % (test concentration not listed); S. aureus RN4220 growth, OD600, 16 h;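 active = z-score of -3 or lower and OD600 up to 0.18 on both plates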;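 note: plate controls were untreated cells for no effect and reference antibiotic for full effect; stock transfer was 100 nL into about 80 µL; one replicate is shown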
Mtb hypoxia inh – Mtb hypoxia fluorescent reporter inhibition | M. tuberculosis hypoxia-regulated fluorescent reporter, fluorescence | fluorescence inhibition, % (concentration not given with the values) | 300,000 compounds, 0.1% hits | AID 1159583;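 active = 35 to 45% if threefold the growth effect, above 45% if 1.5-fold the growth effect; inactive = the rest, general growth blockers included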;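 note: wells of about 50 µL received 100 nL stock; 0% = vehicle wells and 100% = reference inhibitor wells; whole bacteria with a GFP reporter of the hypoxia response; strong numbers were not always called active; many hits fall short of the cut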
Bead autofluor – flagged as autofluorescent in microsphere protease counterscreen | compound autofluorescence counterscreen, microsphere flow cytometry; hits give high values | fluorescence intensity (concentration not given with the values) | 360,000 compounds, 3.1% hits;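 active = at least 3 SD above the mean of all compounds, about 16000 in these data; inconclusive = too few beads counted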;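 note: 100 nL of 1 mM stock went into each well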
BJeLR lethal – kills HRASV12-expressing BJeLR cells. AID 1554. inhibition, % (no concentration beside the values). 300,000 compounds, 0.17% hits. BJeLR (HRASV12) viability, CellTiter-Glo ATP luminescence, 48 h; reference of the scale not given here;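 active = replicate mean above 50%; inconclusive = above 50% but judged a plate artefact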;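 note: 50 nL library stock added to about 25 µL; numbers are from one replicate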
Sa ugtP lethal – compounds lethal to S. aureus RN4220 ugtP deletion mutant. 330,000 compounds, 0.54% hits. OD600 growth, 16 h; some inactives read as strong as hits. growth inhibition, % (test concentration not listed);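 active = z-score under -3 and OD600 up to 0.15 on both plates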;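 note: plate controls were untreated wells for no effect and antibiotic for full effect; wells of about 80 µL received 100 nL stock; the first replicate is given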
PrP 5UTR inh – inhibition of PrP 5' UTR reporter expression | inhibition, % (test concentration not listed) | 340,000 compounds, 0.35% hits | cell-based PrP 5' UTR mRNA reporter, plate reader;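 active = every replicate at 50% or more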;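 note: 0 = median of the neutral control wells; tested in H4 reporter cells; numbers are from one replicate; inactives centre near -14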
Mtb hypoxia inh growth – recorded beside Mtb hypoxia inh, whose call it bears; growth inhibition, %; measured here: M. tuberculosis growth (absorbance);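 0% = vehicle and 100% = reference antibiotic; read after six days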
Active calls of the source: *; u = inconclusive; x = no result given.

Results follow in this order: Sa RN4220 lethal	Mtb hypoxia inh	Mtb hypoxia inh growth	Bead autofluor	BJeLR lethal	Sa ugtP lethal	PrP 5UTR inh
CCCCC(=O)N1CCCC(c2nc3c(nnn3Cc3cc(C)ccc3C)c(=O)[nH]2)C1 (configuration not stated)
 : 8.7	8	2	9608	5	0	-35
CN(Cc1nc(-c2ccncc2)no1)S(=O)(=O)c1ccccc1
 : 5.0	x	x	3588	9	2	-15
CSCCC(NC(=O)C(=Cc1ccc(F)cc1)NC(C)=O)C(=O)O (configuration not stated)
 : -6.0	-2	2	x	x	-3	x
Cc1ccc(SCc2c(C#N)c3ccccc3n2C)cc1
 : 11	x	x	4728	4	12	-26
COc1cc(OC)c(C2=NOC(C(=O)O)C2)cc1Cl (configuration not stated)
 : -2.4	-10	4	8864	4	-6	-16
COc1cc(/C(C)=N/NC(=O)CSc2nc3ccccc3[nH]2)ccc1O
 : x	x	x	4027	6	x	-27
Cn1cnnc1SCC(=O)Nc1cc(S(=O)(=O)N2CCCCC2)ccc1Cl
 : 2.8	9	2	3376	-5	1	-13
COc1ccc(-n2nc3c(c2NC(=O)c2ccc(Br)cc2)CS(=O)C3)cc1 (configuration not stated)
 : 14	18	15	5856	3	10	-23
COc1cccc(COc2ccc(N(C)S(=O)(=O)c3ccccc3)cc2)c1
 : 3.3	6	-3	4154	4	17	-4
Cc1ccsc1/C=N\NC(=O)c1n[nH]c2c1CCC2
 : x	x	x	2125	22	x	-14
O=C1C/C(=C\c2c(F)cccc2Cl)N2CCC1CC2
 : 3.3	16	11	4078	-4	11	-24
Cc1ccccc1/C=N\NC(=O)c1csnn1
 : x	x	x	2377	0	x	-26
Cc1c(C(=O)NCC(c2ccco2)N(C)C)oc2c(Cl)cccc12 (configuration not stated)
 : 5.5	-2	-4	u	-2	3	-14
O=C1/C(=C\c2ccccn2)SC(=S)N1c1ccc(S(=O)(=O)Nc2nccs2)cc1
 : x	x	x	3634	3	x	-20
Cc1ccc(C(=O)NCC(=O)OCC(=O)NC2CCS(=O)(=O)C2)cc1C (configuration not stated)
 : -3.0	-10	6	2017	x	3	3
O=C(O)C1CCC(=O)N1C1c2ccccc2Oc2ccccc21 (configuration not stated)
 : 3.9	x	x	6059	6	7	-7
COc1ccc(C(=O)NOCc2ccccc2)cc1
 : -0.8	4	4	3792	-1	2	-32
O=c1cc(Cl)c(-c2ccccc2)nn1Cc1ccc(Cl)cc1
 : 5.0	10	16	3648	-1	9	-8
CCCN(C(=O)CCNC(=O)Cn1cnc2ccccc2c1=O)c1cccc(Cl)c1
 : 5.0	6	-2	2807	-2	-2	-23
Cc1ccc(C(=O)NC2CCCC2)s1
 : 0.8	x	x	6487	1	-2	-26

3 structures out of the list, ordered by formula weight, falling:
Results follow in this order: Sa RN4220 lethal	Mtb hypoxia inh	Mtb hypoxia inh growth	Bead autofluor	BJeLR lethal	Sa ugtP lethal	PrP 5UTR inh
CN(Cc1nc(-c2ccncc2)no1)S(=O)(=O)c1ccccc1
 : 5.0	x	x	3588	9	2	-15
COc1ccc(C(=O)NOCc2ccccc2)cc1
 : -0.8	4	4	3792	-1	2	-32
Cc1ccccc1/C=N\NC(=O)c1csnn1
 : x	x	x	2377	0	x	-26

Next part.
Results follow in this order: Sa RN4220 lethal	Mtb hypoxia inh	Mtb hypoxia inh growth	Bead autofluor	BJeLR lethal	Sa ugtP lethal	PrP 5UTR inh
COc1ccc2sc(-c3ccc(SC)cc3)c(-c3ccc(O)cc3)c2c1
 : -4.4	7	11	2930	x	71	-9
CSc1ccc(S(=O)(=O)Nc2cccc(F)c2)cc1
 : 8.8	x	x	x	-3	-14	x
O=c1c2ccccc2oc2cc(C#Cc3ccccn3)ccc12
 : 9.2	-6	3	4060	-3	9	-35
Cc1cccc(C(=O)NCC(=O)NCCSc2ccc(Br)cc2)c1
 : -4.8	5	-2	15206	3	8	-6
O=C(Cc1coc2cc(O)ccc12)NNC(=O)c1ccc(Br)s1
 : -5.0	7	8	7561	x	0	-22
Cc1c(NC(=O)Nc2cccc(Cl)c2Cl)c(=O)n(-c2ccccc2)n1C
 : -0.4	11	1	6875	1	3	-7
Nc1nonc1C(=O)NCCc1ccccc1
 : 6.3	6	4	5890	15	13	-27
COc1cc(NC(=S)NCc2cccnc2)c(OC)cc1Cl
 : 2.7	7	6	2161	1	6	-2
CN1CCN(C(=O)NC2CCCCC2)CC1
 : -4.3	x	x	4680	-11	2	-10
Fc1ccc(-c2csc3ncnc(Cl)c23)cc1
 : 6.2	-7	0	2475	1	6	-10
COCCN(C(=O)Cc1cccs1)C(C(=O)NC1CCCC1)c1cc(OC)c(OC)c(OC)c1 (configuration not stated)
 : 1.6	4	4	3629	-8	-4	-23
CN(Cc1cccc(F)c1)C(=O)Cc1ccc(S(=O)(=O)N2CCOCC2)s1
 : 5.2	-3	-2	u	7	1	-27
COc1cccc(NC(=O)C2=COCCO2)c1
 : 2.3	7	-1	u	5	2	-28
CS(=O)(=O)N1CCN(c2ccccc2NC(=O)c2ccc3c(c2)OCCO3)CC1
 : 3.1	-4	-1	3728	-10	4	-10
O=C(OCC(=O)N1CCN(c2ccccc2)CC1)c1ccco1
 : 4.0	-68	-3	3765	4	7	-41
O=C(Cc1ccccc1)NC(Oc1ccccc1Cl)C(Cl)(Cl)Cl (configuration not stated)
 : 7.5	4	-4	2459	-2	-6	-2
O=C1NC2(CCCCCC2)C(=O)N1Cc1ccccc1Cl
 : 3.3	-15	-12	3940	4	6	-9
CC(C)C1Oc2ccccc2N(CC(=O)N(Cc2ccccn2)C2CC2)C1=O (configuration not stated)
 : 6.2	3	12	9634	-5	2	-16
CC(C)(C)c1ccc(Cn2ccc(-c3ccc4c(c3)OCO4)n2)cc1
 : 4.8	1	6	19826*	-4	93*	-28
O=C1CC(NS(=O)(=O)c2ccc([N+](=O)[O-])cc2)CN1c1ccc(Cl)cc1 (configuration not stated)
 : 12	4	3	u	-2	13	-16
Cc1cccc(Cn2c(N3CCN(c4ccccc4)CC3)nc3c2c(=O)n(C)c(=O)n3C)c1
 : 6.4	11	7	4995	1	6	-6
CCOC(=O)C(O)(c1ccc(N(C)C(=O)COc2ccccc2)cc1)C(F)(F)F (configuration not stated)
 : 25	3	4	4102	1	-3	-19
CCC(=O)Oc1ccc(C(=O)Nc2cccc(C(=O)c3ccccc3)c2)cc1
 : 13	0	0	2880	12	-4	-14
CCOC(=O)C1CCN(C(=O)c2ccc(N(C)S(=O)(=O)c3ccc(OC)cc3)cc2)CC1
 : 7.7	0	-2	3279	0	-1	-12
CCc1noc(C)c1C(=O)N1CCCC(N2CCN(c3cccc(Cl)c3)CC2)C1 (configuration not stated)
 : x	x	x	5571	-8	x	1
CC1COC(=O)C(NC(=O)OCC2c3ccccc3-c3ccccc32)CC=CCC(CC(=O)NCCO)C(=O)N1 (configuration not stated)
 : 2.5	14	9	x	x	-4	x
CCOC(=O)CC(=O)CSc1ccc2nnc(-c3ccc(C)cc3)n2n1
 : 6.3	4	1	22080*	6	9	-19
COc1cc(CCc2ccccc2)c(C(=O)O)c(O)c1C/C=C(/C)CCC=C(C)C
 : 88*	-3	4	2906	x	100*	-8
CC(C)OC(=O)c1cccc(C(=O)Oc2ccc(Br)cc2)n1
 : -3.6	-2	-3	9598	-3	-4	-19
Cc1cccc(NP(=O)(Oc2ccccc2)Oc2ccccc2)c1C
 : 3.6	-1	2	6275	-6	-14	6
C#CCN(C(=O)CC1C(=O)NCCN1C/C=C/c1ccccc1)C1CCCCC1 (configuration not stated)
 : 2.7	11	14	5455	-2	5	-57
CC(C)c1ccc(Nc2nc(Cl)nc(Cl)n2)cc1
 : -3.0	-5	2	x	3	-6	-7
CN1CCN(C(=O)c2ccccc2N(Cc2ccccc2)S(=O)(=O)c2ccccc2)CC1
 : 1.2	-3	-4	14817	x	-1	4
Cc1ccc(NS(=O)(=O)c2cc(C(N)=O)ccc2C)cc1
 : -0.4	4	6	15172	-9	-3	-44
COC(=O)c1c(C)[nH]c(C)c1C(=O)c1ccccc1Cc1ccccc1
 : 7.4	-1	4	5488	0	-10	-51
COc1cc(-c2nc(C(=O)NCC3CCCO3)cc3c2[nH]c2ccccc23)cc(OC)c1OC (configuration not stated)
 : -0.7	x	x	5635	-4	7	14
COCCNC(=O)c1ccc2c(c1)nc(C)n2-c1cccc(Cl)c1
 : 0.4	9	7	3878	2	8	-17
CCOC(=O)C1=NOC(CNC(=O)c2ccccc2Cl)C1 (configuration not stated)
 : 9.0	5	-2	3340	0	5	-16
O=C(C(Sc1ccccc1)c1ccccc1)N1CCN(c2ccccc2)CC1 (configuration not stated)
 : 1.9	9	0	2048	-7	3	-3
CCOc1ccc(C(=O)C(C)OC(=O)c2nc(Cl)ccc2Cl)cc1 (configuration not stated)
 : 1.1	5	-1	x	2	4	-11
Cc1[nH]nc(N=Cc2c(O)n(C)c(=O)n(C)c2=O)c1-c1ccccc1
 : 3.5	7	6	x	1	2	x
CCc1ccc(NC(=O)CSc2nnc(Cn3c(=O)sc4ccccc43)n2C)cc1
 : 1.9	x	x	6279	x	4	-46
CCOC(=O)C1(Cc2cccc(OC)c2)CCN(Cc2ccccc2OC)CC1
 : 0.2	15	-2	2860	2	-3	-6
O=C(Nc1ccccc1N1CCCC1)C1CCCO1 (configuration not stated)
 : 6.6	7	-4	u	x	12	-25
Cc1ccc(OCC(=O)O/N=C(\N)c2ccccn2)cc1
 : 9.8	-5	-11	4802	-10	11	-58
O=C(COC(=O)C1CCCCC1C(=O)N1CCc2ccccc21)NCc1ccco1 (configuration not stated)
 : 0.8	x	x	4222	-2	-1	-12
CCOC(=O)C1(CC2CCCCO2)CCN(Cc2c(C)cc(C)cc2-n2cccn2)CC1 (configuration not stated)
 : 3.4	9	0	4424	18	7	-11
COc1cc(C(=O)NCC(=O)OCC(=O)Nc2ncc(Cl)cc2Cl)cc(OC)c1OC
 : 3.6	8	4	4055	-21	0	-6
Cc1ccc2[nH]c3c(=O)n(CC(=O)N4CC(C)CC(C)C4)ncc3c2c1 (configuration not stated)
 : 2.7	8	-4	5636	1	8	-2
Cc1cc(C)n2c(SCC(=O)NC3CCCC(C)C3C)nnc2n1 (configuration not stated)
 : 3.0	0	2	4582	-8	9	-14
CCOC(=O)c1c(NC(=O)c2ccccc2C(=O)O)sc2c1CCCC2
 : 16	7	2	3971	-13	6	-62
Cc1nc2ccccc2nc1NS(=O)(=O)c1ccc(N)cc1
 : 5.3	x	x	2882	3	64	-3
C=C(C)c1cccc(C(C)(C)NC(=O)Nn2cnnc2)c1
 : 5.6	6	7	7742	2	2	-34
CC1=C(C(=O)OCCc2ccccc2)C(c2ccsc2)NC(=O)N1C (configuration not stated)
 : -0.6	-5	6	2188	-10	12	-23
COc1ccccc1/C=C/C(=O)OCC(=O)Nc1nnc(-c2ccccc2)o1
 : 3.2	1	-4	5948	x	-11	-7
COC(=O)c1c(C)cc(C)n2c1nc1ccccc12
 : -4.8	x	x	5042	-1	16	-16
O=C(Nc1ccccn1)C1CCN(S(=O)(=O)c2ccccc2)CC1
 : 2.6	2	-3	3542	x	2	-26
CCOc1ccc(-c2ccc(NS(=O)(=O)c3ccc([N+](=O)[O-])cc3)cc2)nn1
 : x	x	x	5928	-5	x	-5
O=C(Nc1cccc(F)c1)N1CCN(C(=O)c2ccco2)CC1
 : 1.8	11	5	5161	4	3	-4
O=C1C=C(NCC2CCCO2)C2(CCCCC2)O1 (configuration not stated)
 : -0.5	4	6	19832*	x	-1	-41

As entered above.
Under Bead autofluor, COC(=O)c1c(C)cc(C)n2c1nc1ccccc12 reads 5042
Under Bead autofluor, CCOC(=O)C1(CC2CCCCO2)CCN(Cc2c(C)cc(C)cc2-n2cccn2)CC1 (configuration not stated) reads 4424
Under Mtb hypoxia inh growth, CCOC(=O)C1(Cc2cccc(OC)c2)CCN(Cc2ccccc2OC)CC1 reads -2

(more compounds)
Results follow in this order: Sa RN4220 lethal	Mtb hypoxia inh	Mtb hypoxia inh growth	Bead autofluor	BJeLR lethal	Sa ugtP lethal	PrP 5UTR inh
CCOC(=O)C1(CCOC)CCN(C(=O)c2ccc(CSC)o2)CC1
 : 5.1	3	2	6158	1	4	-23
CCCCCCCCCCCNC(=O)c1ccoc1C
 : -6.9	1	-4	3262	-5	34	-5
COc1ccc(CNC(=O)COC(=O)CCN2C(=O)C3CC=CCC3C2=O)cc1OC (configuration not stated)
 : -0.7	2	2	7954	x	0	-34
Cc1ccc(-c2ccnc3cc(C)nn23)cc1
 : 2.5	13	2	3899	8	5	-34
CCOC(=O)c1[nH]c(C)c(C(=O)N(C)C)c1C
 : 5.1	13	1	10788	7	3	-15
O=C(CCN1C(=O)/C(=C\c2ccccc2)SC1=S)NNC(=O)c1cccnc1
 : x	x	x	1977	-20	x	-20
